# Assay outcomes: PubChem, Broad Institute
# Env fusion inh: blocks HIV Env-driven cell-cell fusion | actives 1.1% (n = 360,000) | HeLa-JRFL Env/CEM21 cell fusion, luciferase | inhibition, % at 12.3 µM | AID 651610;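 active means mean replicate inhibition score of at least 50 and every replicate individually at or above 50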;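 further: 0% = plate neutral controls and 100% = maraviroc near 300 nM; one replicate is shown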
# UUG fidelity: yeast start codon fidelity modulation; activity score, % at 18.7 µM; actives 0.13% (n = 350,000); S. cerevisiae UUG-firefly luciferase reporter, luminescence/redox ratio; AID 602363;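 active means replicate mean at a twofold rise or more, about +100% in these data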;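 further: firefly luciferase made from a UUG start codon reports start codon fidelity; reporter light over untreated wells divided by growth signal over untreated wells; some hits fall short of that in this replicate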
# * = called active by the depositor; [ ] = remark or other dose. The list is partial, so the mix of outcomes need not match the whole.
UUG fidelity,Env fusion inh,smiles
5,15[16.7 µM],C[C@@H]1CN([C@@H](C)CO)C(=O)Cc2cc(NC(=O)Nc3cccc4ccccc34)ccc2O[C@H]1CN(C)CC1CCCCC1
2,12[16.7 µM],CCCN(C)C[C@@H]1Oc2cc(-c3ccc(OC)cc3)ccc2S(=O)(=O)N([C@@H](C)CO)C[C@@H]1C
7,8[16.7 µM],CN(C)CCCNC(=O)C[C@@H]1C=C[C@H](NC(=O)c2ccccc2F)[C@@H](CO)O1
-2,-5[16.7 µM],C[C@@H]1CCCCO[C@@H](CN(C)C(=O)Cc2ccccc2)[C@@H](C)CN([C@H](C)CO)C(=O)c2cc(NC(=O)CCC(F)(F)F)ccc2O1
-10,-9[16.7 µM],CCC(=O)N[C@@H]1CC[C@@H](CC(=O)NCc2ccccc2OC)O[C@H]1CO
6,0[16.7 µM],Cc1noc(C)c1NC(=O)N(C)C[C@H]1Oc2ccc(NC(=O)CCCCCC(=O)Nc3ccccc3N)cc2CC(=O)N([C@@H](C)CO)C[C@@H]1C
-1,35[16.7 µM],CC(C)c1cn(CC[C@@H]2CC[C@H](NC(=O)C3CCC3)[C@H](CO)O2)nn1
15,6[16.7 µM],Cc1noc(C)c1NC(=O)N(C)C[C@H]1Oc2ccc(NS(=O)(=O)c3ccc(Cl)cc3)cc2CC(=O)N([C@H](C)CO)C[C@H]1C
-12,-47[16.7 µM],C[C@@H]1CN([C@H](C)CO)C(=O)c2cc(NC(=O)Nc3ccccc3)ccc2O[C@@H](C)CCCCO[C@@H]1CN(C)C(=O)NC1CCCCC1
2,-13[16.7 µM],CC(C)NC(=O)Nc1cccc2c1O[C@H](CN(C)Cc1ccc(-c3ccccc3)cc1)[C@@H](C)CN([C@H](C)CO)C2=O
-7,-5[16.7 µM],CN1C(=O)c2cc(NC(=O)c3ccc(F)c(F)c3)ccc2OC[C@@H]2O[C@H](CC(=O)O)CC[C@H]21
16,-4[16.7 µM],C[C@@H]1CN([C@H](C)CO)C(=O)c2cc(-c3cccnc3)cnc2O[C@H]1CN(C)C(=O)Cc1cccnc1
17,-8[16.7 µM],C[C@@H]1CCCCO[C@H](CN(C)S(=O)(=O)c2ccc(F)cc2)[C@@H](C)CN([C@@H](C)CO)C(=O)c2cc(NC(=O)CCCN(C)C)ccc2O1
5,2[16.7 µM],COc1cccc(S(=O)(=O)N[C@H]2C=C[C@H](CC(=O)NCc3ccc(F)cc3)O[C@@H]2CO)c1
3,-11[16.7 µM],O=C(N[C@H]1CC[C@@H](CCNS(=O)(=O)c2ccccc2Cl)O[C@H]1CO)c1ccc(F)cc1
23,-21[16.7 µM],C[C@H](CO)N1C[C@H](C)[C@H](CN(C)C(=O)Nc2ccccc2)Oc2cc(C#C[C@@H](C)O)ccc2S1(=O)=O
-1,19[16.7 µM],COc1cccc(S(=O)(=O)N(C)C[C@@H]2Oc3ncc(C#CC(C)C)cc3C(=O)N([C@@H](C)CO)C[C@H]2C)c1
3,42[16.7 µM],C[C@H]1CN([C@@H](C)CO)C(=O)c2cc(C#Cc3ccccc3)cnc2O[C@H]1CN(C)C(=O)C1CC1
3,-11[16.7 µM],Cc1ccc(S(=O)(=O)Nc2ccc3c(c2)CC(=O)N([C@H](C)CO)C[C@@H](C)[C@H](CN(C)S(=O)(=O)c2c(C)noc2C)O3)cc1
18,-2[16.7 µM],C[C@@H]1CN([C@H](C)CO)C(=O)c2cc(NC(=O)CCC(F)(F)F)ccc2O[C@@H](C)CCCCO[C@H]1CN(C)Cc1ccccc1
-17,5[16.7 µM],CN(C)CC(=O)Nc1ccc2c(c1)[C@@H]1C[C@@H](CC(=O)NCc3ccccn3)O[C@H](CO)[C@@H]1O2
12,0[16.7 µM],C[C@H](CO)N1C[C@H](C)[C@H](CN(C)C(=O)CCCN(C)C)OCCCC[C@H](C)Oc2ccc(NC(=O)c3ccccc3)cc2C1=O
-3,18[16.7 µM],CN1C(=O)c2cc(NS(C)(=O)=O)ccc2OC[C@@H]2O[C@H](CC(=O)NCc3ccccc3)CC[C@H]21
8,-5[16.7 µM],COc1ccc(NC(=O)Nc2ccc3c(c2)OC[C@@H](C)NC[C@H](C)[C@@H](OC)CN(C)C3=O)cc1
0,6[16.7 µM],CC(=O)Nc1ccc2c(c1)C(=O)N(C)[C@H]1CC[C@H](CC(=O)NCc3ccc(F)cc3)O[C@@H]1CO2
8,-15[16.7 µM],COc1cccc(-c2ccc3c(c2)O[C@H](CN(C)Cc2ccncc2)[C@H](C)CN([C@@H](C)CO)S3(=O)=O)c1
-4,4[16.7 µM],C[C@H]1CN([C@@H](C)CO)C(=O)c2cc(C3=CCCC3)cnc2O[C@@H]1CN(C)Cc1cccnc1
6,58*[16.7 µM],C[C@@H]1CN([C@@H](C)CO)C(=O)c2cc(NS(=O)(=O)c3cccs3)ccc2O[C@@H](C)CCCCO[C@H]1CN(C)Cc1ccc(C(F)(F)F)cc1
8,-6[16.7 µM],C[C@@H]1CN([C@@H](C)CO)C(=O)c2cc(C3=CCCCC3)cnc2O[C@H]1CN(C)C(=O)c1ccncc1
1,-2[16.7 µM],C[C@H](CO)N1C[C@H](C)[C@H](CN(C)Cc2ccncc2)Oc2ccc(NS(=O)(=O)c3ccc(Cl)cc3)cc2C1=O
-12,14[16.7 µM],C[C@@H]1CN([C@H](C)CO)C(=O)Cc2cc(NC(=O)Nc3cccc4ccccc34)ccc2O[C@@H]1CN(C)S(=O)(=O)c1cn(C)cn1
-3,-15[16.7 µM],Cc1noc(C)c1NC(=O)N(C)C[C@H]1Oc2c(NC(=O)Nc3ccc(F)cc3)cccc2C(=O)N([C@H](C)CO)C[C@@H]1C
0,2,CCOC(=O)C1=CCN(S(=O)(=O)c2ccccc2Cl)C1c1cccc(F)c1 (stereo not drawn)
5,3[16.7 µM],CC(C)NC(=O)NCC[C@@H]1CC[C@@H](NS(=O)(=O)c2ccc(-c3ccccc3)cc2)[C@@H](CO)O1
14,7[16.7 µM],COc1cccc(C#Cc2cnc3c(c2)C(=O)N([C@@H](C)CO)C[C@@H](C)[C@@H](CN(C)C(C)=O)O3)c1
5,5[16.7 µM],C[C@@H]1CN([C@@H](C)CO)C(=O)c2cc(NS(=O)(=O)c3ccc(Cl)cc3)ccc2O[C@@H]1CN(C)Cc1ccc(-c2ccccc2)cc1
13,-6[16.7 µM],C[C@@H]1CN([C@H](C)CO)S(=O)(=O)c2ccc(C#C[C@@H](C)O)cc2O[C@H]1CN(C)C(=O)C1CCCCC1
-12,-7[16.7 µM],COCC(=O)Nc1ccc2c(c1)[C@@H]1C[C@H](CC(=O)N3CCN(C)CC3)O[C@@H](CO)[C@@H]1O2
4,-7[16.7 µM],Cc1noc(C)c1S(=O)(=O)Nc1ccc2c(c1)CC(=O)N([C@@H](C)CO)C[C@H](C)[C@@H](CN(C)C(=O)Nc1cccc3ccccc13)O2
-10,-1[16.7 µM],CCCNC(=O)N(C)C[C@H]1Oc2cc(-c3cccnc3)ccc2S(=O)(=O)N([C@H](C)CO)C[C@H]1C

# Next part; it opens with the 2 that closed the last part.
UUG fidelity,Env fusion inh,smiles
4,-7[16.7 µM],Cc1noc(C)c1S(=O)(=O)Nc1ccc2c(c1)CC(=O)N([C@@H](C)CO)C[C@H](C)[C@@H](CN(C)C(=O)Nc1cccc3ccccc13)O2
-10,-1[16.7 µM],CCCNC(=O)N(C)C[C@H]1Oc2cc(-c3cccnc3)ccc2S(=O)(=O)N([C@H](C)CO)C[C@H]1C
-7,-3[16.7 µM],CC(=O)N(C)C[C@H]1Oc2cc(-c3ccncc3)ccc2S(=O)(=O)N([C@@H](C)CO)C[C@@H]1C
15,-22[16.7 µM],CC(C)NC(=O)Nc1ccc2c(c1)C(=O)N([C@H](C)CO)C[C@H](C)[C@H](CN(C)Cc1ccccc1)OCCCC[C@H](C)O2
-12,-364[16.7 µM],O=C(C[C@H]1CC[C@H](NC(=O)c2ccncc2)[C@@H](CO)O1)NCC1CCCCC1
-15,-28[16.7 µM],COc1ccc(NC(=O)N(C)C[C@@H]2Oc3c(NS(=O)(=O)c4ccc(Cl)cc4)cccc3C(=O)N([C@H](C)CO)C[C@H]2C)cc1
17,-22[16.7 µM],COc1ccc(NC(=O)N(C)C[C@H]2OCCCC[C@H](C)Oc3ccc(NS(=O)(=O)c4c(C)noc4C)cc3C(=O)N([C@H](C)CO)C[C@@H]2C)cc1
3,13[16.7 µM],COc1ccccc1-c1cnc2c(c1)C(=O)N([C@@H](C)CO)C[C@H](C)[C@H](CN(C)C(=O)CC1CC1)O2
3,19[16.7 µM],C[C@@H]1CN([C@H](C)CO)C(=O)c2cc(NC(=O)NC3CCCCC3)ccc2O[C@@H](C)CCCCO[C@H]1CN(C)C(=O)c1ccccc1
-7,-4[16.7 µM],COc1ccc(S(=O)(=O)N(C)C[C@@H]2Oc3ccc(NC(=O)NC4CCCCC4)cc3CC(=O)N([C@@H](C)CO)C[C@H]2C)cc1
-8,24,COc1ccc(C(C)(O)c2nc(-c3ccc(N(C)C)cc3)cs2)cc1 (stereo not drawn)
-4,-7[16.7 µM],COCCNC(=O)C[C@@H]1CC[C@H]2[C@H](COc3ccc(NC(C)=O)cc3C(=O)N2C)O1
-11,5[16.7 µM],C[C@H](CO)N1C[C@H](C)[C@H](CN(C)Cc2ccccn2)Oc2cc(-c3ccc(C#N)cc3)ccc2S1(=O)=O
8,-29,C[C@H](CO)N1C[C@H](C)[C@@H](CN(C)C(=O)NC2CCCCC2)OCc2cn(nn2)CCCC1=O
-12,1[16.7 µM],C[C@@H](NC(=O)C[C@H]1C=C[C@H](NC(=O)C2CCC2)[C@H](CO)O1)c1ccccc1
-17,7[16.7 µM],COCCNC(=O)C[C@@H]1CC[C@@H](NC(=O)NC2CCCC2)[C@H](CO)O1
4,-10[16.7 µM],O=C(Nc1ccc(C(F)(F)F)cc1)N[C@@H]1CC[C@@H](CC(=O)N2CCCCC2)O[C@@H]1CO
9,14[16.7 µM],CC(C)NC(=O)N(C)C[C@@H]1Oc2cc(-c3ccccc3F)ccc2S(=O)(=O)N([C@H](C)CO)C[C@H]1C
23,-12[16.7 µM],COc1ccc(S(=O)(=O)N(C)C[C@H]2OCCCC[C@@H](C)Oc3ccc(N(C)C)cc3C(=O)N([C@@H](C)CO)C[C@H]2C)cc1
8,-3[16.7 µM],C/C=C/c1ccc2c(c1)O[C@H](CN(C)C(=O)c1ccncc1)[C@H](C)CN([C@H](C)CO)S2(=O)=O
-6,-8[16.7 µM],C[C@H]1CN([C@@H](C)CO)C(=O)c2cc(-c3ccccc3F)cnc2O[C@@H]1CN(C)Cc1ccccc1F
3,-3[16.7 µM],CO[C@H]1CN(C)C(=O)c2cc(NC(=O)Nc3cc(F)ccc3F)ccc2OC[C@@H](C)N(C)C[C@@H]1C

# Record cards, from the list above. Order of values: UUG fidelity, Env fusion inh
# CC(C)NC(=O)Nc1ccc2c(c1)C(=O)N([C@H](C)CO)C[C@H](C)[C@H](CN(C)Cc1ccccc1)OCCCC[C@H](C)O2 in the list: 15, -22[16.7 µM]
# Cc1noc(C)c1S(=O)(=O)Nc1ccc2c(c1)CC(=O)N([C@@H](C)CO)C[C@H](C)[C@@H](CN(C)C(=O)Nc1cccc3ccccc13)O2 in the list: 4, -7[16.7 µM]
# CC(C)NC(=O)NCC[C@@H]1CC[C@@H](NS(=O)(=O)c2ccc(-c3ccccc3)cc2)[C@@H](CO)O1 in the list: 5, 3[16.7 µM]
# C[C@@H]1CN([C@H](C)CO)C(=O)c2cc(NC(=O)NC3CCCCC3)ccc2O[C@@H](C)CCCCO[C@H]1CN(C)C(=O)c1ccccc1 in the list: 3, 19[16.7 µM]
# COc1cccc(S(=O)(=O)N(C)C[C@@H]2Oc3ncc(C#CC(C)C)cc3C(=O)N([C@@H](C)CO)C[C@H]2C)c1 in the list: -1, 19[16.7 µM]

# Next part:
UUG fidelity,Env fusion inh,smiles
6,-8[16.7 µM],Cc1ccc(NC(=O)Nc2ccc3c(c2)C(=O)N(C)[C@H]2CC[C@@H](CC(=O)O)O[C@@H]2CO3)cc1
0,-20[16.7 µM],C/C=C/c1ccc2c(c1)O[C@@H](CN(C)C(=O)Nc1cc(F)ccc1F)[C@H](C)CN([C@@H](C)CO)S2(=O)=O
-13,9[16.7 µM],COc1ccc(S(=O)(=O)N(C)C[C@@H]2OCCCC[C@@H](C)Oc3ccc(NC(=O)Nc4ccc5c(c4)OCO5)cc3C(=O)N([C@@H](C)CO)C[C@@H]2C)cc1
15,-29[16.7 µM],C[C@H](CO)N1C[C@H](C)[C@@H](CN(C)S(C)(=O)=O)OCCCC[C@H](C)Oc2ccc(NC(=O)Nc3ccc(F)cc3)cc2C1=O
1,10[16.7 µM],CC(C)NC(=O)Nc1ccc2c(c1)C(=O)N([C@@H](C)CO)C[C@@H](C)[C@@H](CN(C)S(=O)(=O)c1ccccc1)OCCCC[C@H](C)O2
4,-10[16.7 µM],C[C@H](CO)N1C[C@H](C)[C@@H](CN(C)C(=O)Nc2ccc3c(c2)OCO3)Oc2c(NC(=O)Nc3cccc4ccccc34)cccc2C1=O
-8,-2[16.7 µM],C[C@@H]1CN([C@@H](C)CO)C(=O)c2cc(NC(=O)Nc3ccc(C(F)(F)F)cc3)ccc2O[C@@H]1CN(C)C(=O)Nc1cccc2ccccc12
-5,15[16.7 µM],Cc1noc(C)c1NC(=O)N(C)C[C@@H]1OCCCC[C@@H](C)Oc2ccc(NS(=O)(=O)c3cccs3)cc2C(=O)N([C@H](C)CO)C[C@H]1C
-7,15[16.7 µM],C[C@@H]1CN([C@H](C)CO)C(=O)c2cc(NC(=O)NC3CCCCC3)ccc2O[C@@H](C)CCCCO[C@H]1CN(C)Cc1ccc(C(=O)O)cc1
-11,-12[16.7 µM],C[C@H](CO)N1C[C@H](C)[C@H](CN(C)C(=O)NC2CCCC2)Oc2cc(/C=C/c3ccccc3)ccc2S1(=O)=O
